KCNQ2 inh: KCNQ2 potassium channel inhibitors, primary screen, cell-based, CHO-K1, FluxOR thallium flux, B-score (AID 2156). hit rate 1.1% among 310,000. B-score at 10 µM. 20 min; hits give low values; only compounds with negative scores are shown here; some inactives read as strong as hits. O88943;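 active means fluorescence ratio B-score at most minus 3 library SDs, with starting brightness B-score within 2 library SDs, cut at about -5.5 in these data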
Target sequence (O88943 whole entry, looked up): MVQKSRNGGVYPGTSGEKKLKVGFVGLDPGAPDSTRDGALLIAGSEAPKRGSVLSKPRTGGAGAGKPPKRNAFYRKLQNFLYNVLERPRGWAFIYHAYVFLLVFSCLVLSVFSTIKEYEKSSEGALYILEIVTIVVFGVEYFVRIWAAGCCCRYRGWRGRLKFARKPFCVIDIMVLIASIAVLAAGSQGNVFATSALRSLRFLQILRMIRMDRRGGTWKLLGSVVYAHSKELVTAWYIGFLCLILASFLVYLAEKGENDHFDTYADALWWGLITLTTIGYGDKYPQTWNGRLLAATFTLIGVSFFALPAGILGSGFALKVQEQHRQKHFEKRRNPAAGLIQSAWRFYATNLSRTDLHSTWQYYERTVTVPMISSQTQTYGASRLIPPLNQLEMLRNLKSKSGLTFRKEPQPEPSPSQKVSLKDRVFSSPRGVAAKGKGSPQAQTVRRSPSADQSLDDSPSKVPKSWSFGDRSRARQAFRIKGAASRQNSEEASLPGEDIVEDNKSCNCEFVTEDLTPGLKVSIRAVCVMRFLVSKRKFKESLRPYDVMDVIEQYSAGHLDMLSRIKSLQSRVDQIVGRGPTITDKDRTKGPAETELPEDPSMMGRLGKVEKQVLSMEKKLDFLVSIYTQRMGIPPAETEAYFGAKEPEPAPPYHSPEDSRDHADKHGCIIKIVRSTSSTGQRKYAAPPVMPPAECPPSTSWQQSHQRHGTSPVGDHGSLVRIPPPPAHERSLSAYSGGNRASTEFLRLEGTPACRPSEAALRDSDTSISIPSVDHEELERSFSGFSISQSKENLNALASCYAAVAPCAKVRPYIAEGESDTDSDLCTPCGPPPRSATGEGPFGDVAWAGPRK
KCNQ2 inh baseline: further read-out of KCNQ2 inh, marked with its call; B-score; measured here: initial fluorescence intensity artifact check;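 brightness before thallium and not channel activity; 0 = typical well and far values either way flag optical interference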
The depositor's hits bear a star; i = inactive. This is a subset; the hit share may differ from the screen's.

SMILES	KCNQ2 inh	KCNQ2 inh baseline
COc1ccc(N(C(=O)Cn2nnc3ccccc32)C2(C(=O)NC3CCCC3)CCCCC2)cc1	i	1.3
O=C(COC(=O)c1ccccc1C(=O)N1CCN(c2ccccc2)CC1)NCc1ccccc1	i	0.55
COc1cccc(CNC(=O)[C@H](CCSC)NC(=O)N2CCn3c2nc2ccccc23)c1	i	-1.1
CC(C)Oc1ccc(/C(O)=C2/C(=O)C(=O)N(CCCn3ccnc3)C2c2cccnc2)cc1 (stereo not drawn)	i	1.8
CCCCn1nc(-c2ccccc2)c2nc3ccccc3nc21	i	9
Cc1ccc(OCC(O)Cn2c(=N)n(CCN3CCCCC3)c3ccccc32)cc1 (stereo not drawn)	i	1.1
Cc1cc(=O)[nH]c(SCc2ccc(Cl)cc2Cl)n1	i	-1.9
Cc1cc(C)cc(NC(=O)COc2coc(CN3CCc4ccccc4C3)cc2=O)c1	i	1.7
COC(=O)c1cccnc1-n1c(=O)c2cccnc2n(Cc2cccc([N+](=O)[O-])c2)c1=O	i	-0.68
CCCC(C(=O)Nc1ccc2c(C)cc(=O)oc2c1)c1ccccc1 (stereo not drawn)	i	1.1
Cc1ccccc1C1CC(c2cccs2)=NN1S(C)(=O)=O (stereo not drawn)	i	2
COc1ccc(/C=C(\NC(=O)c2ccc(C)cc2)C(=O)Nc2ccc(C(=O)O)cc2)cc1	i	0.76
CCOc1ccccc1NC(=O)CCc1c(C)nn(-c2ccc(N3CCCCC3)nn2)c1C	i	0.31
CCCOC(=O)CCCCC1SCC(NC(=O)OC)C1NC(=O)OC (stereo not drawn)	i	2.1
CCC1(c2ccccc2)NC(=O)N(Cc2cccc([N+](=O)[O-])c2)C1=O (stereo not drawn)	i	-1.7
O=C(CNCCC1=CCCCC1)Nc1ccccc1N1CCCCC1	i	2.1
COc1ccc(C(=O)NNC(=O)C2(C)CC2(Br)Br)cc1 (stereo not drawn)	i	-0.18
COc1nnc(-c2ccc(N3CCOCC3)c(NC(=O)C3CCCCC3)c2)c2ccccc12	i	-1.5
COc1cccc(CNc2ncc(C(=O)Nc3cc(OC)c(OC)c(OC)c3)c(C)n2)c1	i	-0.48
O=C(C[n+]1cc(Br)cc(Br)c1)c1ccc(Cl)cc1	i	-0.72
CCC(C(=O)NCc1ccccc1OC)c1ccccc1 (stereo not drawn)	i	-1.6
Cc1onc(-c2ccccc2)c1C(=O)N/N=C(\N)COc1ccc(Cl)cc1	i	1.9
Cc1cccc(N2C(=O)C3CC3C2=O)c1 (stereo not drawn)	i	-0.74
COc1ccc(N2CCN(C(CNC(=O)c3ccc4c(c3)OCO4)c3cccnc3)CC2)cc1 (stereo not drawn)	i	-0.57
N/C(CS(=O)(=O)c1ccccn1)=N\OC(=O)c1ccc(Cl)cc1	i	-0.31

Continuation:
SMILES	KCNQ2 inh	KCNQ2 inh baseline
COc1ncccc1-c1nnn(-c2ccc(Cl)c(Cl)c2)n1	i	-1.5
O=C(O)C1(c2ccccc2)CCN(S(=O)(=O)c2ccc(F)c(F)c2)CC1	i	1.9
COc1ccc(-c2nc3ccccc3c(=O)n2NC(=O)c2cccnc2Cl)cc1OC	i	-0.02
C/C(=N\NC(=O)Cc1ccccc1Cl)c1cccnc1	i	-0.51
NC(=O)CCCC1=NS(=O)(=O)c2ccccc2N1	i	0.12
CCOC(=O)C(=NC1CCS(=O)(=O)C1)NNc1cc(Cl)ccc1Cl (stereo not drawn)	i	0.86
CCOc1ccc2oc(=O)cc(CN3CCN(C(=O)c4ccco4)CC3)c2c1	i	2.7
CC(=O)C1=C(C)NC(SCc2cccc([N+](=O)[O-])c2)=C(C#N)C1c1ccco1 (stereo not drawn)	i	-3.1
Cc1cc2ccccn2c1C(=O)Nc1cccc(Cl)c1	i	1.8
CC1CCCCN1S(=O)(=O)c1ccc(C(=O)N(CCCN(C)C)c2nc3cc4c(cc3s2)OCO4)cc1 (stereo not drawn)	i	-0.81
CCOC(=O)CNC(=O)COc1ccc(Cl)cc1Br	i	0.55
COC(=O)c1ccc(N(CC(=O)NC2CCCCC2)C(=O)CNC(=O)c2ccco2)cc1	i	-0.36
CC(C)Oc1cc(S(=O)(=O)N2CCCCC2)ccc1N	i	1.9
CCOc1cc(CNn2nnnc2N)cc(Cl)c1OCC(=O)NC(C)(C)C	i	0.57
COc1ccc(N2CCN(S(=O)(=O)CCNC(=O)c3cc(=O)c4ccccc4o3)CC2)cc1	i	-0.16
Cc1ccc(C(=O)OCC(=O)N2C(C)CCCC2C)cc1S(=O)(=O)N1CCCCC1 (stereo not drawn)	i	1.1
COc1ccc(Nc2nc(N)nc(CSC(=S)N3CCC(C)CC3)n2)cc1	i	-0.49
CCNC(=S)Nc1cccc([N+](=O)[O-])c1	i	-0.63
COc1cc(/C=C/C(=O)O)ccc1OCc1ccc([N+](=O)[O-])cc1	i	1.6
COc1ccc(N2CCN(C(=O)COc3ccc4ccccc4c3)CC2)cc1	i	1.6
Cc1nn(CC(=O)Nc2cccnc2)c(C)c1[N+](=O)[O-]	i	3.6
CCOC(=O)c1ccc(NC(=O)CN2C(=O)CSC2=O)cc1	i	0.04
CC1CCN(C(=O)c2ccc(S(=O)(=O)NCc3ccco3)cc2)CC1	i	0.16
CCOC(=O)C1=C(C)N=C2SCCC(=O)N2C1c1ccc(OC)cc1 (stereo not drawn)	i	0.07
O=S(=O)(c1ccccc1)c1ncc(C(F)(F)F)cc1O	i	0.72

Going on with the list:
SMILES	KCNQ2 inh	KCNQ2 inh baseline
Cc1ccnc2nc(C(=O)NC3CCCc4ccccc43)nn12 (stereo not drawn)	i	-1.4
CCN(CC(=O)Nc1ccc(NC(C)=O)cc1)C(=O)c1ccccc1SCc1c(C)noc1C	i	0.03
Cc1cc(NC(=O)CSc2ncccn2)no1	i	0.6
Clc1ccc(OCc2cc(-c3ccccc3)no2)cc1Cl	i	-2.2
CCn1c(=O)c(C(=O)NCCNCCO)c(O)c2ccccc21	i	-0.34
Cc1ccc(N2C(=O)CN=C2Nc2nc(C)cc(C)n2)cc1	i	-0.6
CCc1nnc2n1N=C(c1ccc(Cl)cc1)CS2	i	0.15
CCSc1nc2c(c(-c3ccc(C)o3)c1C#N)CCCC2	i	-1.4
Cc1ccccc1NS(=O)(=O)c1ccc2c(c1)NC(=O)CO2	i	1.2
COc1ccc(-c2csc(/C(C#N)=C/Nc3ccc4c(c3)OCCO4)n2)cc1	i	-0.28
CCOc1cccc(NC(=O)C2CC(=O)N(c3ccc(F)cc3)C2)c1 (stereo not drawn)	i	0.84
O=C(CSc1nnc(NC(=O)C2CC(=O)N(c3ccccc3)C2)s1)NCC1CCCO1 (stereo not drawn)	i	-2.7
Cc1cc(C)c(NC(=O)C2CCCO2)c(C)c1 (stereo not drawn)	i	2.1
O=S(=O)(CCc1nc2ccccc2[nH]1)c1ccc(Br)cc1	i	0.94
COc1ccc(S(=O)(=O)c2ccc(OCC3CO3)cc2)cc1 (stereo not drawn)	i	-0.58
c1ccc(NC2=Nc3ccccc3CS2)cc1	i	0.47
O=C(NC(NNc1ccc([N+](=O)[O-])cc1)(C(F)(F)F)C(F)(F)F)c1ccccc1Cl	i	-0.72
COc1ccc2nc(C)cc(N/N=C/c3cccc(OC)c3O)c2c1	i	-0.97
O=C(CSc1nc2ncccc2[nH]1)c1cccc([N+](=O)[O-])c1	i	-0.59
O=C(CC1CCOCC1)Nc1ccc(Cl)c(Cl)c1	i	0.56
CCc1ccc(NC(=O)CCNS(=O)(=O)c2cccc3nonc23)cc1	i	-1.2
CCC(C(=O)OCC(=O)Nc1ccc(OC)cc1OC)c1ccccc1 (stereo not drawn)	i	-1.1
CCN1CCN(S(=O)(=O)c2ccc(Cl)c(C(=O)N(C)Cc3cccc(OC)c3)c2)CC1	i	0.26
Cc1ccc2nc(NC(=O)CSc3nc4c(c(=O)n3C)SC(C)C4)sc2c1 (stereo not drawn)	i	0.54
O=C(c1ccc(F)cc1)C1CCN(C(=O)c2ccc(F)cc2)CC1	i	0.68

Following part
SMILES	KCNQ2 inh	KCNQ2 inh baseline
CCN(CC)CCn1c(SCC(=O)NCc2ccccc2)nc2c(sc3ccccc32)c1=O	i	-0.69
O=C1Nc2ccccc2OC1CC(=O)N1CCOCC1 (stereo not drawn)	i	-0.33
COC(=O)c1sc(N2C(=O)C(O)=C(C(=O)c3ccc(C)o3)C2c2ccco2)nc1C (stereo not drawn)	i	-0.73
CCOC(=O)c1c(C)n(-c2ccc(C)cc2)c2ccc(O)c(CN(C)C)c12	i	-0.76
Cc1ccc(-c2nc(CN3CCN(c4cnccn4)CC3)c(C)o2)o1	i	0.13
Cc1cc(CNC(=O)c2cccnc2Cl)c2ccccc2n1	i	0.07
COc1ccc2c(C)cc(SCC(=O)Nc3cc(C(N)=O)cc(C(N)=O)c3)nc2c1	i	0.18
CCOCCCN(C)C1CCN(S(=O)(=O)c2csc(C(N)=O)c2)CC1	i	-1.2
CCn1c(NCc2cccs2)nc2ccccc21	i	0.44
CCn1c(/C=C/c2ccccc2)nc2ccccc2c1=O	i	-0.7
COC(=O)c1c(NC(=O)c2ccccc2F)sc(C(=O)N2CCOCC2)c1C	i	-0.64
CC1(C)Cc2c(sc3[nH]c(=S)n(Cc4ccccc4)c(=O)c23)CO1	i	0.2
COCCNS(=O)(=O)c1ccc(SC)cc1	i	0.24
CCCn1c(C(C)Nc2nc(-c3ccc(C)cc3)cs2)nc2cc(Cl)c(Cl)cc21 (stereo not drawn)	i	0.05
COc1cccc(C(=O)NC2CCCc3ccccc32)c1 (stereo not drawn)	i	1.1
CCOc1ccc(NCc2nnc(SCC(=O)Nc3cc(C)on3)n2-c2ccccc2OC)cc1	i	0.05
COc1ccc(C(=O)Nc2cc(C)nn2-c2ccc(F)cc2)cc1	i	-1.2
O=C(NNC(=O)c1ccccc1F)c1ccc2nc[nH]c2c1	i	0.2
CCOCCCNC(=S)N1CCN(C(=O)C(=O)Nc2ccc(C(=O)OC)cc2)CC1	i	0.01
O=C(/C=C/Nc1ccccc1Br)c1ccccn1	i	0.43
CCSc1ncc(Cl)c(C(=O)Nc2ccccc2Cl)n1	i	-0.61
CCOC(=O)CNC(=O)c1cc(-c2ccc3c(c2)OCCO3)oc1C	i	-0.29
Cc1cc(C)n(C(=O)C(C(=O)c2ccccc2)C(C)C)n1 (stereo not drawn)	i	-0.13
Cc1cnc(-c2nnc(N(C)C(=O)C3CCCO3)s2)cn1 (stereo not drawn)	i	-1.5
COc1ccccc1CNCC(=O)Nc1ccccc1-n1cccc1	i	-0.24

Later entries:
SMILES	KCNQ2 inh	KCNQ2 inh baseline
CN(C)CCCN(C(=O)c1ccc(S(=O)(=O)N2CCc3ccccc3C2)cc1)c1nc2c(F)cc(F)cc2s1	i	0.69
Cn1c(CC(=O)Nc2ccccc2)nnc1SCC(=O)c1ccccc1	i	-0.8
COC(=O)c1ccc(C)c(NS(=O)(=O)c2ccc(NC(C)=O)cc2)c1	i	1.9
O=C(CCNC(=O)C1CCN(S(=O)(=O)c2ccccc2)CC1)Nc1cccc(C(F)(F)F)c1	i	0.02
CCOc1ccccc1NC(=O)CSc1ccc2nnc(-c3cccnc3)n2n1	i	-0.47
COC(=O)c1ccccc1NC(=O)Oc1ccc(C(C)C)cc1	i	1.2
O=c1cc(-c2ccco2)nc(-c2cccs2)o1	i	0.04
CC(=O)Nc1cccc(N(C(=O)C2COc3ccccc3O2)C(C(=O)NC2CCCCC2)c2cn(C)nc2C)c1 (stereo not drawn)	i	0.12
Clc1cccc(C2Nc3cccc4cccc(c34)N2)c1Cl	i	-1.4
O=C(NC(Cc1c[nH]c2ccccc12)C(=O)O)c1ccc(F)cc1 (stereo not drawn)	i	0.21
CCn1c(C(C)C)n[nH]c1=S	i	1.3
Cc1cc(C)cc(OCCNC(=O)c2ccc(Br)cc2)c1	i	-0.98
COc1ccc(CC(=O)N2CCc3ccccc32)cc1	i	2.2
O=C1c2ccccc2NC(c2cccc([N+](=O)[O-])c2)N1O (stereo not drawn)	i	3.3
O=C(c1ccc(S(=O)(=O)N2CCCCCC2)cc1)N1CCC(CN2C(=O)c3cccc4cccc(c34)C2=O)CC1	i	-1.4
O=S1(=O)CCOC[C@H](CC2CCCCC2)N1Cc1cccc(C(F)(F)F)c1	i	-1.2
Cc1ccc(-n2c3nc(=O)[nH]c(=O)c-3cc3cc([N+](=O)[O-])ccc32)cc1C	i	-0.2

Grouped by structure, the compounds so far containing an aryl thioether with sulfur outside any ring.
SMILES	KCNQ2 inh	KCNQ2 inh baseline
Cc1cc(=O)[nH]c(SCc2ccc(Cl)cc2Cl)n1	i	-1.9
CCN(CC(=O)Nc1ccc(NC(C)=O)cc1)C(=O)c1ccccc1SCc1c(C)noc1C	i	0.03
Cc1cc(NC(=O)CSc2ncccn2)no1	i	0.6
CCSc1nc2c(c(-c3ccc(C)o3)c1C#N)CCCC2	i	-1.4
O=C(CSc1nnc(NC(=O)C2CC(=O)N(c3ccccc3)C2)s1)NCC1CCCO1 (stereo not drawn)	i	-2.7
O=C(CSc1nc2ncccc2[nH]1)c1cccc([N+](=O)[O-])c1	i	-0.59
Cc1ccc2nc(NC(=O)CSc3nc4c(c(=O)n3C)SC(C)C4)sc2c1 (stereo not drawn)	i	0.54
CCN(CC)CCn1c(SCC(=O)NCc2ccccc2)nc2c(sc3ccccc32)c1=O	i	-0.69
COc1ccc2c(C)cc(SCC(=O)Nc3cc(C(N)=O)cc(C(N)=O)c3)nc2c1	i	0.18
COCCNS(=O)(=O)c1ccc(SC)cc1	i	0.24
CCOc1ccc(NCc2nnc(SCC(=O)Nc3cc(C)on3)n2-c2ccccc2OC)cc1	i	0.05
CCSc1ncc(Cl)c(C(=O)Nc2ccccc2Cl)n1	i	-0.61
Cn1c(CC(=O)Nc2ccccc2)nnc1SCC(=O)c1ccccc1	i	-0.8
CCOc1ccccc1NC(=O)CSc1ccc2nnc(-c3cccnc3)n2n1	i	-0.47

Source: PubChem BioAssay (Johns Hopkins Ion Channel Center)
